Screens deposited in PubChem by ICCB-Longwood Screening Facility, Harvard Medical School.
Vaccinia pol inh = inhibitors of vaccinia virus processive DNA synthesis (E9 polymerase); normalized absorbance, % (concentration not given with the values); AID 493162; in vitro processive DNA synthesis, absorbance read-out; hits give low values; some inactives read as strong as hits; actives 0.94% (n = 46,000);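 active = replicate mean up to 90% and picked by the depositor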;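 also: 100% = median of the test wells of a plate; 100 nL library stock went into each well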
* hit, by the source's call. Not all compounds are listed (hit frequency here may not be typical).

SMILES	Vaccinia pol inh
O=C(Nc1nnc(-c2ccccc2)s1)c1ccccc1C(F)(F)F	99.6
COc1ccc(-n2nc3c(c2NC(=O)C2CCCCC2)CSC3)cc1	91.3
Cc1c(CNCCc2cccs2)c(C(=O)O)c(C)n1Cc1c(F)cccc1Cl	100.5
COC(=O)c1ccc2c(c1)C(=O)/C(=C/c1ccc(O)cc1)O2	101.2
O=C(c1sc(N2CCOCC2)nc1-c1ccccc1)c1c[nH]c2ccccc12	98.8
CCOC(=O)CC1(O)CCOC(C)(C)C1 (centres undefined)	102.1
O=C(O)c1ccc(-c2ccc(Br)cc2)cc1	91.0
COc1ccccc1N(CC(=O)NCc1ccco1)S(C)(=O)=O	100.3
O=C(O)c1nn(Cc2ccccc2)nc1C(=O)O	99.3
COc1ccc(N(C)C(=O)c2cn(C3CCCC3)c(=O)c3c2c2ccccc2n3C)cc1	88.8
COCc1nnc(NC(=O)Cc2ccccc2)s1	97.5
CCN(CC)CCCNc1nc2cc(OC)c(OC)cc2c2nc(-c3ccccc3)nn12	33.7*

In another format: four of the compounds above
CCOC(=O)CC1(O)CCOC(C)(C)C1 (centres undefined)
- Vaccinia pol inh: 102.1

O=C(O)c1ccc(-c2ccc(Br)cc2)cc1
- Vaccinia pol inh: 91.0

COc1ccccc1N(CC(=O)NCc1ccco1)S(C)(=O)=O
- Vaccinia pol inh: 100.3

O=C(O)c1nn(Cc2ccccc2)nc1C(=O)O
- Vaccinia pol inh: 99.3

(list continues)
SMILES	Vaccinia pol inh
CCOc1ccc(NC(=S)N(Cc2cn(CC)c3ccccc23)C(C)C)cc1	100.3
O=C(NC1=NCCCCCN1)c1ccccc1Cl	100.3
CCN1C(=O)c2cccc3c(NC(C)=O)ccc1c23	100.2
COC1C(OC)N(S(=O)(=O)c2ccc(C)cc2)CCN1S(=O)(=O)c1ccc(C)cc1 (centres undefined)	100.1
COC(=O)CSC1=C(C#N)C(c2ccccc2C)C2=C(CCCC2=O)N1 (centres undefined)	97.0
COc1ccccc1NC(=O)c1cc(=O)[nH]c2ccccc12	103.6
CCNS(=O)(=O)c1ccc(-c2oc3cc(S(=O)(=O)NCC)ccc3c2Cl)cc1	97.2
CCOc1cc(C2CC(=O)NC(SCc3ccccc3)=C2C#N)ccc1O (centres undefined)	100.8
CN(C)Cc1cc2ccccc2[nH]1	100.1
CCN(CC)CCn1c(N)nc2ccccc21	103.4
Cc1cccc2nc(CBr)cn12	103.4
CN(CC(=O)Nc1cccnc1)S(=O)(=O)c1ccc2[nH]c3c(c2c1)CCCC3	97.5
Cc1c(C(=O)Nc2ccc(F)cc2F)sc2ncnc(N(C)c3ccccc3)c12	101.9
C=CCNc1cc(-c2ccccc2)nc2nncn12	96.9
CCCC(C)C(=O)NCc1ccc(C)cc1 (centres undefined)	96.0
CSc1nn(-c2ccccc2)cc1C(=O)N1CCCCC1	97.5
Cc1cccc(OCC(=O)Nc2ccc3c(c2)nc2n3CCN(c3ccccc3)C2)c1	95.6
Cc1cc(OCC(=O)N(C)C2CCCCC2)ccc1Cl	100.2
CC12CS(=O)(=O)CC1SC(=S)N2Cc1ccccc1 (centres undefined)	100.4
CC1(C)CCc2cc(CN3CCN(c4ncc(C(F)(F)F)cc4Cl)CC3)ccc2O1	91.6
O=C(O)c1cccc(OCc2ccccc2)c1	91.9
Cc1ccc(N=Cc2ccc3c(c2)OCCO3)cc1C	102.2
O=C1OC(c2ccc(Cl)cc2)/C(=C(/O)c2ccccc2)C1=O (centres undefined)	100.2
O=C(CN1C(=O)/C(=C\c2cccs2)SC1=S)Nc1ccc2c(c1)OCO2	101.5
Cc1cc(C(O)(C(F)(F)F)C(F)(F)F)c(C)n1-c1ccccc1	101.3
CSc1c(C#N)c(N)nc2sc(C(=O)c3ccc(Cl)c(Cl)c3)c(N)c12	103.1
c1ccc(-c2cc(-c3ccccc3)n3ncnc3n2)cc1	101.3
CC(C)=Cc1c(O)nc2ccccn2c1=O	99.8
O=C(Cn1cc(C(=O)C2CCCCC2)c2ccccc21)Nc1ccccc1	98.6
CC(C)COC(=O)C1C2C=CC3(CN(Cc4cccs4)C(=O)C13)O2 (centres undefined)	99.9
Cc1cccc(-c2nc(CS(=O)CC(=O)NC3CCCCCC3)c(C)o2)c1 (centres undefined)	100.7
c1ccc(Cc2nc3ccccc3[nH]2)cc1	103.1
Cc1ccc(Nc2ccc3noc4c3c2C(=O)c2ccccc2-4)cc1	100.5
Cc1nn(C(N)=S)c2c1CC(COCCC(C)C)O2 (centres undefined)	100.0
COc1ccc(C(CC(=O)NCc2ccc(C)cc2)N2Cc3ccccc3C2=O)cc1OC (centres undefined)	102.5
CCCc1c(C(=O)Sc2ccc(Cl)cc2)cnn1-c1ccccc1	110.0

Four compounds drawn at random from those above, as already listed:
SMILES	Vaccinia pol inh
CCCc1c(C(=O)Sc2ccc(Cl)cc2)cnn1-c1ccccc1	110.0
CN(C)Cc1cc2ccccc2[nH]1	100.1
COCc1nnc(NC(=O)Cc2ccccc2)s1	97.5
Cc1c(C(=O)Nc2ccc(F)cc2F)sc2ncnc(N(C)c3ccccc3)c12	101.9

Remaining list, next part:
SMILES	Vaccinia pol inh
O=C(CSc1cccc[n+]1[O-])Nc1ccccc1	105.8
Cc1ccc(CSc2nnc(OC(=O)N(C)C)n2-c2cccc(Cl)c2)cc1	94.9
O=C(NC(C(F)(F)F)C(F)(F)F)OCc1ccccc1	99.7
O=C(CN1C(=O)/C(=C/c2ccccc2)SC1=S)NC1CCCCC1	99.7
CCN(C(=O)c1cnccc1C(F)(F)F)c1ccc(Cl)cc1Cl	100.2
CCOC(=O)c1ccc(NC2CCCc3c2[nH]c2ccc(C)cc32)cc1 (centres undefined)	101.2
Cc1noc(/C=C/c2ccco2)c1S(=O)(=O)N1CCC(C(=O)O)CC1	96.5
CN(C)C=NC(=O)c1sc(S(C)(=O)=O)c2c1CCC=C2	101.2
CC1CCN(c2ncnc3c2cnn3Cc2ccc(Cl)cc2)CC1	99.8
Clc1ccc(Cn2ccc3ccccc32)cn1	86.0
Cc1cc(C)c2c(-n3cccc3)c(C(=O)N(C)Cc3ccccc3)sc2n1	101.8
COc1cc(/C=C/C(=O)NC23CC4CC(CC(C4)C2)C3)cc(OC)c1OC	71.3
CC1CCN(C(=O)COC(=O)c2cccs2)CC1	101.6
NC(=O)NS(=O)(=O)c1ccc(N)cc1	100.3
CC1CCCCN1C(=O)Cn1cc(C(=O)c2ccccc2)c2ccccc21 (centres undefined)	106.4
CCCc1cc2c(-c3ccccc3)cc(=O)oc2cc1OC(C)=O	99.3
COc1ccc(-n2ncc(NC(=O)NCc3ccccn3)c2C)cc1	91.3
COC(=O)c1ccccc1NC(=O)c1c(C)nn(-c2ccccc2)c1-n1cccc1	102.6
CCN(CC)CCCN1C(=O)C(=O)/C(=C(/O)c2cc(C)ccc2C)C1c1cccs1 (centres undefined)	104.0
CC1CCC(NS(=O)(=O)c2ccc3c(c2)n(C)c(=O)c(=O)n3C)CC1 (centres undefined)	91.6
Cc1nc(SCC(C)C)c(C#N)c(C)c1C	99.5
CSc1cccc(N=Cc2oc(O)c3ccccc23)c1	94.8
COc1cccc(CN2C(=O)C3(C(C#N)=C(N)OC4=C3C(=O)CCC4)c3ccccc32)c1 (centres undefined)	106.6
O=C(c1sc2cc(F)ccc2c1Cl)N1CCCCCC1	79.5
O=C(c1c(Cl)nc2sccn12)N1CCCc2ccccc21	96.9
CCS(=O)(=O)c1ccc(O)c(N2C(=O)C3C4C=CC(C4)C3C2=O)c1 (centres undefined)	94.9
CCOC(=O)c1cc(-c2ccccc2)n(-c2ccc(C(=O)O)cc2)c1C	60.6*
OCCNc1nc2ccccc2n1Cc1ccccc1	100.4
O=C(CSC1CCCC1)c1ccccc1F	100.2
COc1ccc(Cn2c(=O)[nH]c3cc(C(=O)NC4CCCCC4)ccc3c2=O)cc1	95.7
COc1ccc(-c2[nH]c3ccccc3c2SCCNC(=O)c2ccc3c(c2)OCO3)cc1	96.8
Cc1[nH]n(-c2ccccc2)c(=O)c1S(=O)(=O)c1ccccc1	100.4
O=C(O)/C=C/C(=O)NC1CCN(c2nccc(C(F)(F)F)n2)CC1	98.3
N#CC1=C(N)n2c(nc3ccccc32)NC1c1ccc(Cl)cc1 (centres undefined)	101.0
COc1ccc(C2=C(C#N)C(=O)OC2)cc1	89.6
COc1ccccc1OCCSc1nc(-c2ccccc2)c(-c2ccccc2)[nH]1	100.0
CN(Cc1ccccc1)C(=O)c1cc2c(s1)-c1ccccc1OC2	98.7
O=C(c1cnn(C(=O)C2CC2)c1)c1cc(Cl)ccc1O	101.9
COC(=O)C1=C(Nc2ccccc2NS(=O)(=O)c2cn(C)cn2)CSC1	99.8
COc1cccc(NC(=O)CCSc2nnc3ccc4ccccc4n23)c1	99.6
Cc1c(Cl)c(O)c(Cl)c(C)c1N(S(=O)(=O)c1ccccc1)S(=O)(=O)c1ccccc1	100.0
Cn1c(SCC(=O)NCc2ccc(Cl)cc2)nnc1-c1ccc(Cl)cc1	102.2
O=C(CN1C(=O)/C(=C\c2ccccc2)Oc2ccccc21)NC1CCCCC1	106.5
Cc1sc2ncnc(-n3nnc4ccccc43)c2c1C	100.6
O=C(COc1ccc(Oc2ccccc2)cc1)N1CCN(Cc2ccccc2)CC1	96.7
O=C(Nc1cc(Cl)cc(Cl)c1)N1CCN(Cc2ccccc2)CC1	97.2
O=C(Nc1n[nH]c(C(F)(F)F)n1)c1ccco1	105.1
CCn1c(=O)cc(SCC(=O)NCCN2CCN(Cc3ccccc3)CC2)c2ccccc21	82.9
Nc1cc(C(F)(F)F)ccc1Oc1ccc(Br)cc1	101.7
CC(/C=C1\SC(=S)N(CCC(=O)N2CCN(C)CC2)C1=O)=C\c1ccccc1	100.2
CCOC(=O)N1CCC2(CC1)C(C#N)=C(C)Nc1oc(C)nc12	100.3
COc1ccc(CNc2ccc(C)c(C)c2)cc1OC	95.4
c1ccc(Nc2nc3c(ccc4ccccc43)s2)cc1	95.8
CN(C(=O)c1snc2ccc(Cl)cc12)c1ccccc1	96.1
COc1ccc(-c2nnc(NC(C)=O)o2)cc1	101.0
Cc1ccc(C(=O)Nc2ccccn2)cc1	101.0
Cc1cc(C2CCCCC2)n(O)c(=O)c1	100.2
Cc1cc(C(=O)Nc2sc3c(c2C(N)=O)CCCC3)on1	102.6
Cc1ccc(NC(=O)/C=C2/SC(=O)N(CN3CCCCC3)C2=O)cc1	99.9
CCOC(=O)c1cc(-c2ccccc2)n(CC(=O)O)c1C	99.6
New compounds follow:
SMILES	Vaccinia pol inh
COc1cc(OC)cc(C(=O)n2nc(C)cc2C)c1	100.1
CCOC=C1C(=O)c2ccccc2C1=O	85.1
CC(C)(CO)NC(=O)C12CC3CC(CC(Cl)(C3)C1)C2	103.9
Cc1nc(C)nc(N(Cc2ccccc2Cl)Cc2ccccc2Cl)n1	95.3
CC(C)C(=O)N1N=C2CCCCC2C1(O)C(F)(F)F (centres undefined)	98.9
C=C1C(C(=O)NCC2CCCO2)C1C(=O)NCC1CCCO1 (centres undefined)	86.4
C/C(=N\O)C(=O)c1ccc(-c2ccccc2F)cc1	99.5
O=C(NC1=NCCS1)c1ccccc1OCc1ccccc1	100.9
C=CCn1c(SCC(=O)OCC)nc2cc(C(=O)NCc3ccco3)ccc2c1=O	100.6
O=C(CCCc1nc(-c2ccccc2)no1)Nc1ccccc1	90.5
Cc1ccccc1NC(=O)C1(N(C)C(=O)Cn2nnnc2N)CCCCC1	100.8
Cc1ccc(NC(=O)Cn2c(C(F)(F)F)nc3ccccc32)cc1	107.2

Taken from above.
CCN(CC)CCCN1C(=O)C(=O)/C(=C(/O)c2cc(C)ccc2C)C1c1cccs1 (centres undefined) | Vaccinia pol inh: 104.0
COc1cccc(CN2C(=O)C3(C(C#N)=C(N)OC4=C3C(=O)CCC4)c3ccccc32)c1 (centres undefined) | Vaccinia pol inh: 106.6

(further entries)
SMILES	Vaccinia pol inh
C[C@H]1CC2C([C@@H](O)C[C@@]3(C)C2CC[C@]3(O)C(=O)CO)[C@@]2(C)C=CC(=O)C=C12 (some centres undefined)	100.9
CC1CCCC(NC(=O)COC(=O)CCc2ccccc2)C1C (centres undefined)	105.0
COc1cccc(NC(=O)c2cc3c(=O)oc4ccccc4c3s2)c1	97.6
CCc1[nH]c(=S)c(C#N)c(-c2ccccc2)c1C(=O)OC	100.2
O=C(O)c1ccc(OCC2CCCO2)cc1 (centres undefined)	101.1
CC(=O)N1CCc2ccccc2C1CNC1=CC(=O)CC(C)(C)C1 (centres undefined)	100.0
O=C(O)c1ccc(CN2CCCCC2)o1	98.4
COc1ccc2[nH]c3c(c2c1)CN(C)CC3	95.3
COC(=O)c1cccc(NC(=O)c2ccccc2C(=O)O)c1	99.8
O=C(OCCN1C(=O)c2ccccc2C1=O)c1ccccc1	99.9
CC1CC(C)CN(C(=O)c2ccc3c(c2)N(Cc2ccccc2)C(=O)c2ccccc2S3=O)C1 (centres undefined)	100.7
CC(C)(C#N)NC(=O)Nc1ccccc1	98.1
O=C(O)c1ccc(N2C(=O)CCC2=O)cc1	101.0
Cc1cc(NC(=O)Nc2cn(C)c(=O)c3ccccc23)no1	93.4
Cc1cc(C(=O)OCC(=O)C(C)(C)C)c(C)o1	103.4
Cn1cc(C(=O)NCCCN2CCCC2)c2c3ccccc3n(C)c2c1=O	80.8
CSc1ncc(Cl)c(C(=O)Nc2nnc(SCc3ccc(F)cc3)s2)n1	68.1*
CSC1=NC2(CC(c3cccs3)c3ccc(O)c(O)c3O2)CC(C)(C)N1 (centres undefined)	106.5
CN(C)c1ccc(CNCCC2(c3ccccc3)CCOC(C)(C)C2)cc1 (centres undefined)	87.0
O=C(NCCNC1CCCCC1)c1cccs1	109.7
C=CCNC(=S)N1CCc2sccc2C1c1ccc(OC)cc1 (centres undefined)	100.2
